rRNA inh HTS = inhibitors of bacterial rRNA selective over humanized ribosomes; GFP signal change (wild-type ribosome), % (test concentration not listed); E. coli WT GFP vs humanized-ribosome RFP mutants, fluorescence, 24 h; stronger effect = lower value; DMSO median 0, no signal -100; hit rate 1.6% among 350,000;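 active = significant combined selectivity score with lowered wild-type GFP, culture density cut under 30%, mutant RFP and density less affected; inactive = any of these conditions unmet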; note: one replicate is shown; some compounds called inactive have numbers as strong as hits
HNF4A DNA FP = change in binding of human HNF4 alpha to DNA; HNF4a-FITC DNA binding, fluorescence polarization, 1 h; activity change, % at 10 µM; hit rate 0.3% among 360,000; in the data active = activity change above about 30%, passing the limit was not always enough;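 note: controls were the assay level and a saturating level of protein; the project sought stronger binding though the title names inhibitors; some compounds called inactive have numbers as strong as hits; positive values seem to mean higher polarization but the record does not say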
ALR H2O2 inh = blocks human ALR sulfhydryl oxidase activity. purified ALR, DTT oxidation, H2O2 HRP-luminol luminescence. inhibition, % (no concentration beside the values). hit rate 3.8% among 290,000;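 active = mean and each replicate at 75% or more; inconclusive = only one of the two met; inactive = neither met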;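 note: stock transfer was 7.5 nL into about 7.5 µL; 0% = neutral wells and 100% = wells with inactivated enzyme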
Target sequence (P55789 whole entry, looked up): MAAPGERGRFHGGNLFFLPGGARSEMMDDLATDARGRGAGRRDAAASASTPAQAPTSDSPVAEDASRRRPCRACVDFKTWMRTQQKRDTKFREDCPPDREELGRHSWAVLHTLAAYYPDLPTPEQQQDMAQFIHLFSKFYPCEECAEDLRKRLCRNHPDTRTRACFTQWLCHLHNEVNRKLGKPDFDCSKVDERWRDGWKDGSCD
Vif A3G = inhibitors of Vif binding to APOBEC3G peptide, primary screen, biochemical, TR-FRET, GST-Vif 1-94, biotin-A3G peptide, dose response retest (AID 1117319); TR-FRET GST-Vif / biotin-A3G peptide binding; higher % means a stronger effect; test concentration not given here; strong numbers were not always called active; inhibition, %; hits with a dose series show IC50 in µM; hit rate 0.57% among 260,000;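 active = above the screen mean plus three standard deviations and confirmed in dose response; inconclusive = results disagree or hit not tested in dose response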;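 note: Vif residues 1-94 fused to GST binding biotinylated APOBEC3G peptide 110-148; 0% = full assay without inhibitor and 100% = GST in place of GST-Vif; retest series ran down from 100 µM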
AF4-AF9 inh = MLL-AF4/AF9 protein interaction inhibition; P42568; AlphaScreen, biotin-AF4 peptide binding to FLAG-AF9; inhibition, % at 10 µM; hit rate 0.47% among 350,000;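 active = every replicate reaching a set inhibition limit, whatever the replicate mean, cut at about 25% in these data; inconclusive = mean inhibition reaches that limit but some replicates miss it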;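 note: 0% = plate neutral control median and 100% = total signal loss; the record names both 10 and 1 µM as test concentration; the first replicate is given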
Target sequence (P42568 whole entry, looked up): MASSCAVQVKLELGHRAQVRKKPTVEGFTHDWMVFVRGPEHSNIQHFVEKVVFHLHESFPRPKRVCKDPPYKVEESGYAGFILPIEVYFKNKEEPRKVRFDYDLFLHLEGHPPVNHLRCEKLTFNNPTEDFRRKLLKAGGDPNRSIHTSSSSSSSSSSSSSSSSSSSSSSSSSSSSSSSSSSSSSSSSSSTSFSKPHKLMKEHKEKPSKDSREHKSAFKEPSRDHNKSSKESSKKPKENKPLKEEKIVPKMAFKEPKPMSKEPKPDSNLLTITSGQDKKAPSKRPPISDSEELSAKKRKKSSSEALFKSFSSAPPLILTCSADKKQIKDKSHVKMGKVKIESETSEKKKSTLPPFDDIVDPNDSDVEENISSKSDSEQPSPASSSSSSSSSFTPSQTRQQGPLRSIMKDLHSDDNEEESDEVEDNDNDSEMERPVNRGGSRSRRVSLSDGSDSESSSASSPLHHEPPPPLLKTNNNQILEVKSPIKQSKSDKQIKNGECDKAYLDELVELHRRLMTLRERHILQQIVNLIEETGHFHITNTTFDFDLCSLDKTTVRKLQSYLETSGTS
FGF22 binding = binders of recombinant human FGF22 by thermal shift. Q9HCT0. SYPRO orange fluorescence; percent of sucrose octasulfate shift, DMSO zero. calls only at 9.99 µM. hit rate 1.5% among 340,000. AID 651658;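 active = melting point raised past a set limit in the mean and every replicate; inconclusive = no clear call; three in four hits are not shown here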
Target sequence (Q9HCT0 whole entry, looked up): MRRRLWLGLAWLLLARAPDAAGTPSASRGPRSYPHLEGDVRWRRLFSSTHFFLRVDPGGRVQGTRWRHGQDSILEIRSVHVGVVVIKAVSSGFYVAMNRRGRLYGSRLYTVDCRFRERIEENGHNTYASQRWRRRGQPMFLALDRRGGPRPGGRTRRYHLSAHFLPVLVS
Ecoli growth = E. coli growth inhibition; Escherichia coli growth, OD600, 23 h; stronger effect = lower value; OD600 absorbance (no concentration beside the values); hit rate 0.21% among 330,000; AID 1053175;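 active = OD600 absorbance below the run mean of sample wells minus 3.6 SD, in any replicate, cut at about 0.56 in these data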;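 note: stock transfer was 300 nL into about 60 µL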
rRNA inh HTS OD600 = further read-out of rRNA inh HTS, marked with its call; OD600 change, %; measured here: OD600 growth;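 optical density of the mix in the first replicate; 0 = DMSO median and -100 = no signal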
rRNA inh HTS RFP = further read-out of rRNA inh HTS, marked with its call; RFP signal change, %; measured here: RFP humanized mutant strains;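 first replicate; 0 = DMSO median and -100 = no signal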
* hit, by the source's call; i = inactive; ? = inconclusive; . = not tested or not shown; + = active, no number. A portion of the library; rates above refer to the full screens.

SMILES | rRNA inh HTS | rRNA inh HTS OD600 | rRNA inh HTS RFP | HNF4A DNA FP | ALR H2O2 inh | Vif A3G | AF4-AF9 inh | FGF22 binding | Ecoli growth
C[C@@H]1CN([C@H](C)CO)S(=O)(=O)c2ccc(-c3cncnc3)cc2O[C@@H]1CN(C)C(=O)NC1CCCC1 | 6 | 0 | -4.0 | . | . | . | -1.1 | i | .
CC(C)N(C(=O)NC(=O)Nc1ccccn1)S(C)(=O)=O | 3 | -3 | 0.3 | 4.3 | -4 | 3% | -1.4 | i | 0.71
CCC1(CC)Cc2ccccc2C(=C(C#N)C#N)N1 | . | . | . | 0.6 | -14 | 3% | . | . | 0.69
COc1ccc(OC)c(NC(=O)Cn2cc(C#N)c3cc(Br)ccc32)c1 | . | . | . | -1.0 | . | -24% | . | . | 0.67
CCCCN(C)c1c(C)nc2ccc(C(=O)NCc3ccc4c(c3)OCO4)cn12 | -54 | -75 | -16 | -1.9 | . | . | -2.3 | i | .
COc1ccc2c(C)cc3nncn3c2c1 | -5 | -11 | -2.7 | 2.3 | -30 | . | -0.1 | i | 0.63
COCCN(C(=O)COc1ccccc1)c1nnc(-c2cccnc2)s1 | . | . | . | -0.1 | -5 | -34% | . | . | 0.74
COc1ccc(N2CCN(C(=O)CN3C(=O)NC4(CCCc5ccccc54)C3=O)CC2)cc1 (centres undefined) | 0 | 3 | 1.8 | 2.2 | 38 | 2% | -4.6 | i | 0.63
COc1ccc(NC(=O)CN2CCC(NC(=O)c3ccco3)CC2)c([N+](=O)[O-])c1 | 2 | 12 | -0.9 | 1.0 | . | 0% | 1.8 | i | 0.65
O=C(O)C1CCN(c2nc(-c3ccccc3)c3cc(Br)ccc3n2)CC1 | -4 | -7 | 1.6 | -3.6 | 11 | . | -1.4 | i | 0.66

Reformatted in CSV form: entries from further up.
SMILES,rRNA inh HTS,rRNA inh HTS OD600,rRNA inh HTS RFP,HNF4A DNA FP,ALR H2O2 inh,Vif A3G,AF4-AF9 inh,FGF22 binding,Ecoli growth
COc1ccc(OC)c(NC(=O)Cn2cc(C#N)c3cc(Br)ccc32)c1,.,.,.,-1.0,.,-24%,.,.,0.67
CCCCN(C)c1c(C)nc2ccc(C(=O)NCc3ccc4c(c3)OCO4)cn12,-54,-75,-16,-1.9,.,.,-2.3,i,.
COc1ccc2c(C)cc3nncn3c2c1,-5,-11,-2.7,2.3,-30,.,-0.1,i,0.63

(continued)
SMILES | rRNA inh HTS | rRNA inh HTS OD600 | rRNA inh HTS RFP | HNF4A DNA FP | ALR H2O2 inh | Vif A3G | AF4-AF9 inh | FGF22 binding | Ecoli growth
COc1ccc(CNc2ccc(S(=O)(=O)N3CCN(C)CC3)cn2)cc1OC | -2 | 16 | -1.0 | 0.9 | 1 | 0% | 2.5 | i | 0.73
CC(C)NCC(O)COCc1ccc(Cl)cc1 (centres undefined) | . | . | . | 6.3 | 6 | 10% | . | . | 0.71
O=C(CSc1nn(-c2ccc(F)cc2)c(=S)s1)NCC1CCCO1 (centres undefined) | 12 | 0 | -2.0 | 4.0 | -1 | -1% | -2.5 | i | 0.63
CCCCN(C)C(=O)c1nc2ccccn2c1CNC1CCC1 | 2 | 1 | -3.3 | 2.8 | 1 | 23% | -9.0 | i | 0.72
Cc1nc(NCCC(C)C)c2nnn(Cc3ccccc3)c2n1 | 12 | 16 | 2.7 | 0.3 | -5 | . | -9.3 | i | 0.7
COCCNc1ncnc2c1ncn2[C@H]1CN(CCc2ccccc2)C[C@@H](CO)O1 | 22 | 24 | -0.9 | -1.7 | . | . | -3.2 | i | .
Cn1c(=O)c2c(nc(CN3CCN(C(=O)c4ccco4)CC3)n2Cc2ccc(F)cc2)n(C)c1=O | . | . | . | -0.6 | -5 | -3% | . | . | 0.67
O=C1NCCN(Cc2ccc(-c3ccccc3)cc2)C1CC(=O)N1CCN(CCO)CC1 (centres undefined) | 10 | -2 | 3.6 | 4.4 | -11 | -2% | 2.4 | i | 0.67
Cc1noc(C)c1NC(=O)N(C)C[C@@H]1Oc2c(NS(=O)(=O)c3ccccc3)cccc2C(=O)N([C@@H](C)CO)C[C@@H]1C | -3 | 0 | -2.3 | . | . | . | -1.2 | i | .
COc1ccc(CNc2nc3c(c(=O)n(Cc4ccc(F)cc4)c(=O)n3C)n2C)cc1 | 5 | 8 | 1.1 | 0.6 | -7 | ? | . | . | 0.66
COc1cccc(/C(C)=N/NC(=O)c2ccc(N(C)C)cc2)c1 | . | . | . | 1.9 | -3 | -2% | . | . | .
CCc1nc2c(OCC=C(C)C)cccn2c1N(C)C(=O)c1ccc(OC)cc1 | 3 | 9 | 9.1 | 3.1 | . | . | 8.3 | i | .
O=C1NC[C@H](CCCCN2CCN(CC3CCCCC3)C(=O)C2=O)N(CCc2ccccc2)C1=O | 17 | 10 | 4.2 | -0.8 | . | . | 1.7 | i | .
O=C(NC(=S)N1CCCCC1c1cccnc1)c1ccccc1 (centres undefined) | . | . | . | 0.3 | -7 | . | -5.6 | i | 0.71
COCCNC(=S)NNC(=O)c1cccs1 | 18 | 20 | 2.5 | 6.0 | 14 | -21% | -1.9 | i | 0.72
CCCCN(C)S(=O)(=O)c1cc2c3c(c1)CCC(=O)N3CCC2 | -5 | -15 | -1.9 | -0.5 | -6 | . | -0.8 | i | 0.68
CC(=O)NCCCOc1ccc([N+](=O)[O-])cc1Cl | 1 | 13 | -1.1 | 1.6 | -2 | . | -1.3 | i | 0.67
CCOc1ccc(NC(=O)CSc2nnnn2-c2ccc(C(N)=O)cc2)cc1 | 10 | 1 | 1.2 | 0.9 | -12 | -3% | -1.4 | i | 0.73
Cc1[nH]nc2c1C(c1ccsc1)C1=C(CC(C)(C)CC1=O)N2 (centres undefined) | -11 | -14 | -6.2 | -0.1 | 7 | 1% | -0.5 | i | 0.66
CN(C(=O)c1cccc(NC(=O)Cc2cccc(NC(=O)C3CCN(S(=O)(=O)c4cccc([N+](=O)[O-])c4)CC3)c2)c1)C1CC1 | 11 | 12 | 5.1 | -6.9 | . | -5% | 2.1 | i | 0.69
Cc1ccccc1CN(C)C[C@@H]1OCc2cnnn2CCCC(=O)N([C@H](C)CO)C[C@@H]1C | -3 | -4 | -0.8 | . | . | . | -0.4 | i | .
O=C(NC(=S)N1CCCCC1)c1cccs1 | . | . | . | -3.9 | 2 | . | . | . | 0.71
O=C(C[C@@H]1C=C[C@@H](NC(=O)Nc2ccc(F)cc2)[C@@H](CO)O1)NCc1cccc(F)c1 | -10 | -9 | -2.2 | . | . | . | -1.4 | i | .
COc1ccccc1CCNC(=O)c1nccnc1C(=O)O | . | . | . | 2.6 | -4 | 6% | . | . | 0.7
O=C(Nc1ccc(C(=O)N2CCOCC2)cc1)Nc1cccc(C(F)(F)F)c1 | -2 | 6 | 1.1 | 1.7 | -2 | -4% | -2.1 | i | 0.66
C[C@H](CO)N1C[C@H](C)[C@H](CN(C)C(=O)c2ccccc2F)Oc2cc(-c3ccc(F)cc3)ccc2S1(=O)=O | -10 | -3 | 3.2 | . | . | . | 2.2 | i | .
COc1cc(Br)cc(CN2CCN(C=O)CC2)c1O | -7 | -3 | -0.5 | -0.6 | 15 | -5% | -5.3 | i | 0.69
CN(C)c1ccc(N=Nc2ccc(S(N)(=O)=O)cc2)cc1 | 4 | 15 | -1.0 | -5.2 | -14 | 6% | -0.5 | i | 0.71
COc1ccc(NC(=O)C2CCCN(c3c4c(nc5ncnn35)CCC4)C2)cc1OC (centres undefined) | . | . | . | -1.8 | -9 | 2% | . | . | 0.69
CCOC(=O)N1CCC(Nc2c(-c3ccccc3)c(=O)c2=O)CC1 | . | . | . | 4.3 | 1 | 4% | . | . | 0.71
CCN(CC)c1ccc(NC(=O)COC(=O)C23CCC(=O)N2c2ccccc2S3)cc1 (centres undefined) | . | . | . | -0.1 | 97* | 5% | . | . | 0.72
Cc1onc(-c2ccccc2Cl)c1C(=O)OCC(=O)N1CCCCC1 | 2 | 3 | 0.8 | 2.0 | -16 | . | 2.3 | i | 0.68
COc1cc(/C=C/c2nc3ccccc3c(=O)[nH]2)cc(OC)c1OC | 7 | 4 | 0.0 | 1.7 | . | 0% | 3.7 | i | 0.69
COc1ccc(-c2nc(C3CCCCC3)no2)cc1OC | -19* | 15* | -0.5* | 0.3 | 5 | 0% | 1.7 | i | 0.66
CC(=O)N1C=CN(C(C)=O)C(c2cn(C)c3ccccc23)C1c1cn(C)c2ccccc12 (centres undefined) | . | . | . | -2.8 | -9 | 0% | . | . | 0.73
COc1ccc(CCC(=O)OCC(=O)Nc2sccc2C#N)cc1 | -2 | -8 | 10.0 | 13 | -10 | -2% | -1.7 | i | 0.68
CCOc1ccc(/C=C/C(=O)c2ccc(-c3ccccc3)cc2)cc1 | . | . | . | -0.2 | 15 | -1% | . | . | 0.66
Cn1c(C(=O)N2CCCC(C(=O)O)C2)cc2sccc21 (centres undefined) | . | . | . | -2.4 | 2 | -1% | . | . | 0.67
CN(C(=O)c1cc(COc2ccc(F)c(F)c2)on1)C1CCOC1 (centres undefined) | 1 | 3 | -1.3 | -0.8 | -15 | . | 1.0 | i | 0.65
CCN=c1scc(C)n1/N=C/c1cc(Br)c(O)c(OC)c1 | -6 | 11 | -2.5 | 5.1 | 87* | 11% | 15 | i | .
CC(C)NC(=O)Nc1ccc2c(c1)CC(=O)N([C@@H](C)CO)C[C@@H](C)[C@@H](CN(C)CC1CCCCC1)O2 | 2 | 2 | -0.3 | . | . | . | 2.2 | i | .
CC(C)(C)c1nnc(NC(=O)C2CCN(C(=O)c3ccco3)CC2)s1 | -6 | -7 | -3.1 | -0.6 | 4 | . | 2.1 | i | 0.69
N#C/C(=C\c1ccc(-c2ccccc2C(=O)O)o1)c1nc2ccccc2[nH]1 | 9 | 5 | 1.5 | 44* | -18 | 15% | -0.4 | i | 0.7
O=[N+]([O-])c1cc(Br)ccc1NS(=O)(=O)c1ccccc1 | -9 | -14 | -0.3 | 0.2 | . | 0% | 2.5 | i | 0.66
C[C@H]1CN([C@@H](C)CO)C(=O)Cc2cc(NC(=O)NC3CCCCC3)ccc2O[C@@H]1CN(C)Cc1ccc(C(F)(F)F)cc1 | 2 | 2 | -0.2 | . | . | . | -3.2 | i | .
CCN(CC)CC(O)Cn1c(-c2cccc(Cl)c2)nc2cc(C)c(C)cc21 (centres undefined) | 17 | 10 | 0.5 | -0.6 | 7 | -12% | . | i | 0.66
O=C(CNC(=O)c1ccncc1)N/N=C/c1ccc(O)cc1O | 1 | 0 | 6.5 | 6.9 | 50 | 7% | 0.7 | i | .
C/C(=N\NC(=O)CNc1cccc(C)c1)c1ccc(Br)s1 | 0 | 4 | -2.2 | 1.2 | -6 | 17% | 11 | i | .
CCN(C(=O)c1coc(=O)c2ccccc12)c1cc(OC)ccc1OC | . | . | . | 3.7 | -7 | -2% | . | . | 0.71
CO[C@H]1CN(C)C(=O)c2ccc(NC(C)=O)cc2OC[C@@H](C)N(Cc2cccc(F)c2)C[C@H]1C | 0 | 0 | -2.4 | . | . | . | -8.4 | i | .
O=C(NNC(=O)c1ccccc1F)c1ccc(NS(=O)(=O)c2ccc(F)cc2)cc1 | 7 | 4 | -0.5 | -2.5 | . | 4% | -21 | + | 0.63
COc1ccc(-c2ccc([C@H]3[C@H]4CN(S(=O)(=O)c5cccs5)CCCCN4[C@H]3CO)cc2)cc1 | -1 | -7 | -1.9 | . | . | . | -4.2 | i | .
COc1ccc(C(=O)NCC(C)NC(=O)c2ccc(OC)c(Br)c2)cc1Br (centres undefined) | 5 | 1 | -2.2 | 6.8 | 3 | . | -2.5 | i | 0.61
